# Source: PubChem
# Rce1 inhib = yeast Ras-converting enzyme inhibition; AID 2563; 0.27% of 290,000 active; calls only; yeast membranes, quenched prenylated peptide cleavage fluorescence; Q03530;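 active means fall in fluorescence gain of 50% or more versus controls, with final raw signal at or below 3038400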;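 further: plate controls were neutral control wells for no effect and wells lacking membranes for full effect; tested at 10 µM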
# CSC inhib = blocks cancer stem cells; inhibition, % at 7.5 µM; cancer stem cell-like cells viability, luminescence; 1.1% of 300,000 active;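 active means mean at 75% or more and at least half the replicates too; tested in HMLE shEcad cells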;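 further: 0% = median of negative and 100% = median of positive control wells; the first replicate is given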
# MT1-MMP act inh = blocks activation of human MT1-MMP; GFP/RFP ratio change, % at 20 µM; P50281; 0.061% of 360,000 active; HT1080 RFP-PRO-GFP cells, GFP/RFP ratio fluorescence, overnight; percent of plate control window, DMSO zero; AID 651647;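 active means GFP/RFP ratio change of at least 30% with cell ATP level not reduced by more than half and red fluorescence within 50% of control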; further: strong numbers were not always called active
#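 Test system: HT1080 RFP-PRO-GFP cells; Benchmarks: DMSO and RFP-L50D-GFP cell wells; Timing: cells overnight before dosing, compound overnight, 37 °C, 5% CO2; Compound: one 20 µM compound dose with 1% DMSO; Read-out: GFP/RFP fluorescence ratio.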
# PABP FP inh = PABP-poly(A) binding inhibition | P11940 | PABP-poly(A) RNA binding, fluorescence polarization | inhibition, % at 35 µM | 1% of 290,000 active | AID 2014;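 active means 50% or more with normal probe brightness, or confirmed in later tests; about a fifth of its hits are not listed in these tables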;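 further: calls also rest on retests at 20 µM and on dose response follow-up; controls were probe without protein and protein plus probe with vehicle; some compounds called inactive have numbers as strong as hits; many hits fall short of the cut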
# Target sequence (P11940 whole entry, looked up): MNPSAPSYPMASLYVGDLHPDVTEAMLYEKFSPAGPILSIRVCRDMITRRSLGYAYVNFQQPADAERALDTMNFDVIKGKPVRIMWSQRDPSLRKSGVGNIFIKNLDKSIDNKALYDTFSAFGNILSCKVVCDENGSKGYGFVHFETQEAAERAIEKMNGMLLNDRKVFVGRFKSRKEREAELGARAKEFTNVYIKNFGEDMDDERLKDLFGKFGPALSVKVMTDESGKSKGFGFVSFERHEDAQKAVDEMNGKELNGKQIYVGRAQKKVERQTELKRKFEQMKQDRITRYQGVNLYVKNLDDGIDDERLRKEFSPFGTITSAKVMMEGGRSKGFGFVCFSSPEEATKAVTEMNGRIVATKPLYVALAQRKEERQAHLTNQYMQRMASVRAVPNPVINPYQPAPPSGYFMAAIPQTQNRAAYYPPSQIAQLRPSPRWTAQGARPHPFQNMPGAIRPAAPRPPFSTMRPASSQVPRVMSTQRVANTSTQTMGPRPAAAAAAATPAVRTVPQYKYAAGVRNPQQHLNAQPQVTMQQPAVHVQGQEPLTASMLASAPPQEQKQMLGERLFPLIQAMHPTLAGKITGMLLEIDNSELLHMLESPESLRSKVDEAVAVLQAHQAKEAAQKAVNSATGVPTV
# HIV Env fusion = inhibitors of HIV Env-mediated cell fusion | HeLa-JRFL Env/CEM21 cell fusion, luciferase | inhibition, % at 12.3 µM | 1.1% of 360,000 active;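 active means mean replicate inhibition score of at least 50 and every replicate individually at or above 50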;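 further: 0% = plate neutral controls and 100% = maraviroc near 300 nM; one replicate is shown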
# UUG fidelity = modulators of start codon recognition fidelity in yeast; S. cerevisiae UUG-firefly luciferase reporter, luminescence/redox ratio; activity score, % at 18.7 µM; 0.13% of 350,000 active; AID 602363;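 active means replicate mean at a twofold rise or more, about +100% in these data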;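 further: firefly luciferase made from a UUG start codon reports start codon fidelity; reporter light over untreated wells divided by growth signal over untreated wells; some hits fall short of that in this replicate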
# eIF4H FP inh = inhibitors of RNA binding by human eIF4H; AID 2012; eIF4H fluorescence polarization binding assay; 0.94% of 290,000 active; inhibition, % at 35 µM; Q15056;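 active means 50% or more with normal probe brightness, or confirmed in later tests; about a fifth of its hits are not listed in these tables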;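 further: calls also rest on retests at 20 µM and on dose response follow-up; 0% = protein and probe with vehicle and 100% = probe without protein; strong numbers were not always called active; many hits fall short of the cut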
# MT1-MMP act inh RFP = recorded beside MT1-MMP act inh, whose call it bears; RFP signal change, %; measured here: RFP expression control read;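 0 = vehicle wells; hits needed this value within 50% of zero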
# Active calls of the source: *; i = inactive; x = no result given. Outcome played no part in choosing rows; any-hit rate near 3%.
SMILES	PABP FP inh	HIV Env fusion	UUG fidelity	MT1-MMP act inh	eIF4H FP inh	Rce1 inhib	MT1-MMP act inh RFP	CSC inhib
C[C@@H]1CN([C@H](C)CO)C(=O)c2c(c3ccccc3n2C)-c2ccccc2CO[C@@H]1CN(C)Cc1ccc(O)cc1	x	-36	-4	-3	x	x	1	x
CCOC(=O)C1(Cc2ccccc2)CCN(Cc2ccc3cc(NC(C)=O)ccc3n2)CC1	4	-8	-6	-8	19	i	0	-11
Cc1cccc(CCNC(=O)c2cccc(N3CCCC3=O)c2)c1	2	-28	-7	-4	0	i	-2	-22
CCOC(=O)C(C)N1CC(=O)N(c2ccccc2)C1=O (stereo not drawn)	x	18	6	-2	x	i	0	-6
CCc1ccc(C(=O)NNC(=O)Cn2c(=O)cnc3ccccc32)cc1	x	x	-13	0	x	x	5	-1
O=C(NCCN1C(=O)C2C3C=CC(C3)C2C1=O)NCc1ccccc1 (stereo not drawn)	-2	6	-11	1	3	i	4	-11
O=C(CCl)NCCCN(C(=O)C(Cl)Cl)c1ccc([N+](=O)[O-])cc1	-4	16	-2	-5	-11	i	-5	4
CC(C)C(=O)NCCCc1ccccc1	1	x	-21	2	20	i	3	-1
O=C(NCCN1CCN(c2ccccc2)CC1)c1ccc(NC(=O)C2CCCO2)cc1 (stereo not drawn)	16	-26	-4	1	4	i	1	-5
O=C(CCC1CCCN(C2C3CC4CC(C3)CC2C4)C1)NCc1ccc(F)c(F)c1 (stereo not drawn)	-9	25	x	1	0	i	-2	19

# Single records (already shown). Values in the order: PABP FP inh | HIV Env fusion | UUG fidelity | MT1-MMP act inh | eIF4H FP inh | Rce1 inhib | MT1-MMP act inh RFP | CSC inhib
# Cc1cccc(CCNC(=O)c2cccc(N3CCCC3=O)c2)c1 is listed as 2 | -28 | -7 | -4 | 0 | i | -2 | -22
# C[C@@H]1CN([C@H](C)CO)C(=O)c2c(c3ccccc3n2C)-c2ccccc2CO[C@@H]1CN(C)Cc1ccc(O)cc1 is listed as x | -36 | -4 | -3 | x | x | 1 | x
# O=C(CCl)NCCCN(C(=O)C(Cl)Cl)c1ccc([N+](=O)[O-])cc1 is listed as -4 | 16 | -2 | -5 | -11 | i | -5 | 4

# (cont.)
SMILES	PABP FP inh	HIV Env fusion	UUG fidelity	MT1-MMP act inh	eIF4H FP inh	Rce1 inhib	MT1-MMP act inh RFP	CSC inhib
CN1C(=O)NC(c2ccccc2[N+](=O)[O-])C2=C1CC(C)(C)CC2=O (stereo not drawn)	2	0	x	3	-6	i	2	-14
CCS(=O)(=O)NC(C)C(c1cccs1)N1CCN(c2ccc(OC)cc2)CC1 (stereo not drawn)	-4	-5	-12	3	5	i	-1	-6
CCN(CC)CCN(C(=O)Cn1nnc(-c2ccc(OC)c(OC)c2)n1)C(C(=O)NC1CCCC1)c1ccc(F)cc1 (stereo not drawn)	5	x	-6	5	-14	i	3	12
C/C(=N/Nc1ccccc1[N+](=O)[O-])c1ccc(C)c([N+](=O)[O-])c1	1	-5	-35	5	1	i	7	x
Cc1ccc2[nH]c(=O)c(-c3nc4c(C)cccn4c3NCc3ccco3)cc2c1	12	x	-1	1	8	i	-4	-2
COc1cccc(-c2cc(C(=O)Nc3ccc4c(c3)OCCO4)c3ccccc3n2)c1	-5	x	x	x	-10	i	x	x
COc1ccc(/C=C(\NC(=O)c2ccc(C)cc2)C(=O)N2CCCCC2)cc1	-5	4	8	-3	-2	i	0	-9
CN(CC(O)Cn1c2ccccc2c2ccccc21)S(C)(=O)=O (stereo not drawn)	-7	5	x	0	-9	i	-8	4
Cc1occc1-c1nnc(SCC(=O)Nc2ccccc2-c2ccccc2)n1C	4	-65	-2	-2	3	i	-1	-4
COc1cc(OC)cc(C(=O)N[C@H](C(=O)OCC(=O)Nc2cccc(F)c2)C(C)C)c1	-12	-22	x	6	-1	i	1	-2
Cc1ccc(C)c(S(=O)(=O)N2CCN(C(=O)c3ccc(N4CCCC4)c([N+](=O)[O-])c3)CC2)c1	0	4	5	-3	2	i	-1	27
CN(C)c1ccc(-c2ccc3c(=O)c4ccccc4n(C)c3c2)cn1	2	-51	-23	6	15	i	3	0
CC(=O)n1c2ccccc2c2nc3ccccc3nc21	-6	x	-16	0	13	i	-3	-6
CN1C(=O)CSC1=Nc1ccc(F)cc1	-8	-10	5	-4	0	i	3	-13
COC(=O)CON1C(=O)c2ccccc2C1=O	2	-16	x	2	6	i	5	20
Cn1nnnc1SCC(=O)Nc1nc2c(F)c(F)c(F)cc2s1	x	-9	-20	0	x	x	-3	-3
Cc1nc(NC(=O)CSc2nnc(C3CC3)n2C)sc1C	7	-18	-16	-1	2	i	0	-38
COc1ccc(-n2c(=O)c3c(C)c(C)sc3n(Cc3ccc(F)cc3)c2=O)c(OC)c1	-2	4	x	-7	-2	i	-5	2
OC1(c2ccccc2)CCN(Cc2ccccc2)C2CCCCC21 (stereo not drawn)	2	x	-6	-4	0	i	-4	8
CC(Oc1ccc(Cl)cc1Cl)C(=O)NNC(=O)[C@@H]1CCCC[C@@H]1C(=O)O (stereo partly drawn)	-4	-4	-1	1	-11	i	0	-5
CCOC(=O)CNC(=O)N(C)[C@H]1C[C@H]2c3[nH]c4ccccc4c3CCN2C[C@H]1[C@H](C)O	x	-7	3	-7	x	x	6	x
COc1ccc2[nH]c3c(c2c1)CCN1C(=O)N([C@@H](C)C(=O)NCc2ccc(F)cc2)C(=O)[C@]31C	-3	x	-9	0	-10	i	-11	-2
Cc1ccc(NC(=O)CCN2C(=O)C3C4CCC(C4)C3C2=O)cc1[N+](=O)[O-] (stereo not drawn)	-2	-5	-5	3	-1	i	5	-2
Cc1c(C(=O)Nc2ccccc2)csc1-c1ccccc1	16	x	-18	2	2	i	-1	16
CC(C)(C)OC(=O)N1CCC(NC(=O)c2nc[nH]c2C(=O)N2CCN(C(=O)OC(C)(C)C)CC2)CC1	x	-6	13	1	x	x	3	6
CCN(CC)C(=O)c1ccc2nc3ccccc3nc2c1	0	-22	x	-7	1	i	2	25
CCNC(=O)C1(C)CCCN1C(=O)c1c(F)cccc1F (stereo not drawn)	x	-3	-6	4	x	x	10	x
O=S(=O)(c1ccc(Br)s1)n1cccn1	-2	-29	5	9	-11	i	5	-2
O=C(Nc1ncc2c(n1)-c1ccccc1OC2)c1cccc([N+](=O)[O-])c1	7	2	11	-3	3	i	-1	7
CCOC(=O)CC(c1ccc(N)cc1)n1c(C)ccc1C (stereo not drawn)	6	-9	-24	-2	8	i	3	-19
Cc1cccc(N(Cc2ccccc2)C(=O)c2cc(S(=O)(=O)N3CCOCC3)ccc2Cl)c1	x	x	x	-6	x	i	-4	-2
Cc1ccc(-c2nn[nH]n2)cc1	7	-9	6	2	10	i	1	-10
CCOc1ccc(NC(=O)CCc2c(C)nn(-c3ccc(N4CCCCC4)nn3)c2C)cc1	3	-43	-2	0	-4	i	0	-4
COCCn1c(SCc2ccc(C(=O)OC)o2)nnc1-c1c[nH]c2ccccc12	2	x	-22	-1	0	i	-1	-10
O=C(Nc1nccs1)c1cc(Cl)ccc1[N+](=O)[O-]	-11	19	x	-4	2	i	1	14
Cc1ccc(NC(=S)N2CCC(NC(=O)C3CCCCC3)CC2)cc1C	0	2	-14	-2	0	i	0	6
CN(Cc1nc(-c2ccc(Cl)cc2)no1)C(=O)c1ccco1	4	-11	-11	-1	1	i	0	x
NS(=O)(=O)c1ccc(NC(=O)COC(=O)CSc2n[nH]c(-c3ccccc3)n2)cc1	5	x	-13	-1	6	i	4	x
O=C(C1CCCN1S(=O)(=O)c1ccc(Cl)c(Cl)c1)N1CCOCC1 (stereo not drawn)	-6	x	-18	-2	-3	i	2	19
CC(=O)Nc1ccc(S(=O)(=O)N(CCCN2CCOCC2)Cc2cccs2)cc1	0	-6	x	-3	17	i	0	0
O=C(NNC(=O)C1CCC1)c1ccc(Cl)cc1	-2	12	-20	-9	-6	i	-1	-7
COc1ccccc1CNC(=O)CC1Sc2ccccc2NC1=O (stereo not drawn)	14	8	-11	1	-9	i	4	-2
CCOC(=O)C1=C(C)N(C)C(=S)N(C)C1c1ccc(OC)cc1 (stereo not drawn)	-4	5	x	1	-1	i	3	5
Cc1cc(C)nc(N2CCN(c3ccc(F)cc3)CC2)n1	14	-3	-5	0	4	i	3	x
CCC(C)Sc1nc2c(c(=O)[nH]c(=O)n2C)n1CC(O)COc1ccccc1C (stereo not drawn)	16	-106	x	6	-10	i	-3	-13
Cc1ccc(/C=N/NC(=O)NN(C)c2ncc(C(F)(F)F)cc2Cl)cc1	-1	5	-11	0	4	i	-3	7
O=C1c2oc3ccc(Cl)cc3c(=O)c2C(c2cccc(Br)c2)N1CCO (stereo not drawn)	-14	x	12	1	5	i	-8	9
O=[N+]([O-])c1cc(C(F)(F)F)ccc1NCCOc1ccccc1	0	x	x	15	11	i	6	18
Cc1ccc(S(=O)(=O)CC(=O)NCc2ccc(Cl)cc2)cc1	x	x	-4	-3	x	x	0	-22
Cc1ccc(-c2nnc(NC3CCCC3)s2)cc1	-2	-122	-19	2	-15	i	0	17

# More records follow.
SMILES	PABP FP inh	HIV Env fusion	UUG fidelity	MT1-MMP act inh	eIF4H FP inh	Rce1 inhib	MT1-MMP act inh RFP	CSC inhib
CC1(C)NC(=O)N(CC(O)CN2C(=O)NC(C)(C)C2=O)C1=O	3	-2	-22	-2	-3	i	1	-15
CC(C)(C)c1ccc(S(=O)(=O)NC(=O)C2(C)CCN2C(=O)Cc2cccc3ccccc23)cc1 (stereo not drawn)	x	30	10	2	x	x	7	x
O=C(O)c1cc(-c2ccc3c(c2)OCCO3)n[nH]1	6	-1	3	3	-4	i	4	2
Cc1cc(C)n2nc3nc(N4CCCCC4)nc(-c4ccco4)c3c2n1	56*	x	-2	-3	72*	i	5	x
COc1ccc(Cc2nc3ccc(C(=O)N4CCN(C)C(C)C4)cc3o2)cc1OC (stereo not drawn)	6	4	-13	3	-7	i	-28	-5
CCC(C)(C)n1nnnc1C(c1cc2ccc(OC)cc2[nH]c1=O)N1CCCCC1 (stereo not drawn)	8	-12	-14	-13	-9	i	-1	9
CN(C)CCCN(C(=O)CCc1ccccc1)c1nc2c(F)cccc2s1	8	x	-6	-3	-4	i	-3	-6
O=C(O)COc1ccccc1/C=N/NC(=O)C(O)c1ccccc1 (stereo not drawn)	4	1	-10	1	-1	i	3	-16
Cc1ccc2[nH]cc(S(=O)(=O)c3ccc(C)c(C)c3)c(=O)c2c1	0	7	x	-3	6	i	-7	-14
Cn1c(=O)c2cc(S(=O)(=O)NCCC(=O)NCC3CCCO3)ccc2n(C)c1=O (stereo not drawn)	-6	-17	-4	6	-9	i	8	-8
C=CCc1cccc2cc(C(=O)NCCOC)c(=O)oc12	-1	1	-22	-2	-5	i	3	-11
CC(C)CN1CCN(Cc2cc(F)ccc2-n2cccn2)CC1CCO (stereo not drawn)	-4	0	x	-3	-1	i	6	x
CN(C)C(=S)Nc1ccc(Cc2ccncc2)cc1	7	20	-23	-1	4	i	-1	57
Cc1cnc(CN(C)C(=O)CC2C(=O)NCCN2Cc2cccc(F)c2F)[nH]1 (stereo not drawn)	-5	-132	3	1	0	i	3	-3
COc1cccc(CNC(=O)COC(=O)CCCNC(=O)c2ccc(Cl)cc2)c1	x	2	-21	0	x	i	1	-9
Cc1ccc(-c2noc(CCC(=O)NCCN3CCc4ccccc4C3)n2)cc1	-3	x	-7	-1	0	i	-3	4
CC1(c2nnc(Cc3ccccc3)o2)CC(c2ccccc2[N+](=O)[O-])=NO1 (stereo not drawn)	x	x	-23	-5	x	i	0	-25
CCN1C(=O)C(CC(=O)Nc2ccc(F)cc2)N(Cc2cccs2)C1=S (stereo not drawn)	4	31	3	1	-8	i	-1	-5
Cc1cccc(NC(=O)c2cc(S(=O)(=O)N(C)c3ccc(F)cc3)ccc2Cl)n1	x	x	5	0	x	i	-4	0
